Sfp PPTase inh: inhibitors of Bacillus subtilis Sfp phosphopantetheinyl transferase | Q9F4F7 | Biochemical Sfp PPTase activity, qHTS | Potency, µM, for inactives: max response, negative = inhibition, usual class: inhibitors | 310,000 tested, 3.5% active; active = well fitted inhibition curve with a large enough effect; inconclusive = small, poorly fitted or top-dose-only effect, or another doubt; inactive = no such curve, though single readings can be large or run the other way;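 also: the enzyme is Sfp with the accession as filed and its product quenches rhodamine fluorescence; potency is read from the fitted curve at half-maximal effect; 0% = enzyme reaction without inhibitor and -100% = no enzyme wells; top concentration of the series not given in the record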
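Fluorescence-quenching assay: 15 nM Sfp-PPTase preincubated 15 min at room temperature with compound, then 5 uM rhodamine-CoA and 12.5 uM BHQ-2-labelled YbbR peptide added. Fluorescence (ex 525/em 598 nm) read at start and after 30 min; difference gives rate.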
D2 ag: human D2 receptor agonism in beta-arrestin assay; activation, % (test concentration not listed); P14416; AID 624465; 360,000 tested, 0.084% active; DiscoveRx PathHunter D2 beta-arrestin, luminescence, 90 min; 100% = 57 uM dopamine signal; in the data active = activation above about 40%; inconclusive = about 15% to 40%; inactive = below about 15%; also: compound concentration not given in the record; the text of the record calls up to 30% inactive
Target sequence (P14416 whole entry, looked up): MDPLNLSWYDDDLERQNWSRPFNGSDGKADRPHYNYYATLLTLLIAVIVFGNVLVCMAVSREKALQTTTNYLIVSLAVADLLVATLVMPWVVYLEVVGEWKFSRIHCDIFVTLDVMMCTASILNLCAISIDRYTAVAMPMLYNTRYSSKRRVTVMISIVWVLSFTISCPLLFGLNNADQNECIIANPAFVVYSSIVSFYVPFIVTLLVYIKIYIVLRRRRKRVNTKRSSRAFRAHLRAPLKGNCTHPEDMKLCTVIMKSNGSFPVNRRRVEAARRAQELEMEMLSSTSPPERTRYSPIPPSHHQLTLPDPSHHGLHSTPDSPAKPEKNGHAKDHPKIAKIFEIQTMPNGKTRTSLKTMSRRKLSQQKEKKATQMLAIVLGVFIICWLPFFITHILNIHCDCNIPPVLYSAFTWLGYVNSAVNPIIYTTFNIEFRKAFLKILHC
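DiscoveRx PathHunter D2 beta-arrestin cells (2,100/well) attached overnight, then compound-stimulated 90 min at 37 C in HBSS/10 mM HEPES/0.1% Tween-20 buffer; beta-galactosidase complementation read by luminescence after 1 h at ambient temperature. Dopamine 57 uM final (EC100) as control.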
gsp agonist: agonists of gsp mutant (McCune-Albright syndrome); AID 624287; Potency, µM (titrated, usually from 76.9 µM), for inactives: at the top dose activation (cAMP increase), actives largely listed as activators; gsp mutant cells, cAMP HTRF, 30 min; control for the full effect not named in the record; 340,000 tested, 0.13% active; active = well fitted activation curve with a large enough effect; inconclusive = small, poorly fitted or top-dose-only effect, or another doubt; inactive = no such curve, though single readings can be large or run the other way; cell line not stated here;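 also: phosphodiesterase inhibitor Ro 20-1724 added with compounds to block cAMP breakdown; potency is read from the fitted curve at half-maximal effect; nearly all actives have a fitted effect of over 60% in size; about a fifth of the inactives were tested at one dose only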
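Cells stably selected in G418 were plated at 2000/well, grown 16-24 hr, then given compounds in DMSO with the PDE inhibitor […] (300 uM solution added) for 30 min at 37C; cAMP was read by HTRF.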
PINK1 expr mod: modulators of PINK1 expression. 410,000 tested, 0.2% active. AID 624263. PINK1 immunofluorescence, high-content cytometry, 24 h. Potency, µM (series often up to 76.6 µM), without a hit: at the top dose activation (PINK1 increase), most hits filed as activators; active = well fitted activation curve with a large enough effect; inconclusive = small, poorly fitted or top-dose-only effect; inactive = flat fitted curve, though single readings scatter; cell line not stated here;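 also: potency is read from the fitted curve at half-maximal effect; % of control where 0% means no effect; nearly all actives have a fitted effect of over 65% in size; a mitochondrial uncoupler was the plate control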
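PINK1 protein, normally rapidly degraded, was detected by immunofluorescence after 24 hour compound treatment of a stable cell line. Titration data (5 concentrations) came from laser-scanning cytometry, with CCCP-treated wells as controls.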
gsp antagonist: antagonizes gsp, the McCune-Albright syndrome mutation | gsp-mutant cells, cAMP HTRF, 30 min; control for the full effect not named in the record | Potency, µM (doses to about 76.9 µM), without a hit: at the top dose activity change, negative = inhibition, hits mostly inhibitors | 340,000 tested, 0.4% active; active = falling curve of any shape with a large fitted effect; inconclusive = falling curve, mostly with a smaller effect; inactive = flat or rising curve; cell line not stated here;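 also: intracellular cAMP measured with PDE inhibitor Ro 20-1724 present during compound exposure; potency is read from the fitted curve at half-maximal effect; % is scaled to controls: 0 for no effect and ±100 for the full control effect; nearly all actives have a fitted effect of over 65% in size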
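Cells in G418 medium, seeded 16-24 h, 37C; buffer exchange to DPBS + 1 mM CaCl2, 0.5 mM MgCl2, 0.05% BSA; cpds in DMSO + […] (300 uM stock), 30 min 37C; HTRF cAMP detection.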
ClpP mod: qHTS Assay for Activators of ClpP; 340,000 tested, 1.9% active; ATP-dependent Clp protease proteolytic subunit (Bacillus subtilis (strain 168)), P80244; Potency, µM (top dose mostly 57.5 µM), without a hit: at the top dose activity change, negative = active; purified B. subtilis ClpP, FRET peptide cleavage, 20 min; AID 651965, 2013; active = well fitted falling curve with a large enough effect; inconclusive = small, poorly fitted or top-dose-only effect; inactive = no such curve, though single readings can be large or run the other way; also: potency is read from the fitted curve at half-maximal effect; the source files actives as falling curves though it sought activators and does not explain the sign; nearly all actives have a fitted effect of over 65% in size; many hits overshoot -100%
Target sequence (P80244 whole entry, looked up): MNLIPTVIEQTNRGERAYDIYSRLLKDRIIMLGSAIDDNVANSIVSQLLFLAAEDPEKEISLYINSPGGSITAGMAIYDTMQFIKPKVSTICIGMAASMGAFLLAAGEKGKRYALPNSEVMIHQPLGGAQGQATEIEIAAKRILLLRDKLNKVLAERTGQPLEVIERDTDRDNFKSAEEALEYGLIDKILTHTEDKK
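ClpP 10 microg/mL final, pH 8 Tris/KCl buffer with BSA, glycerol, Tween-20; compound pinned in; FRET-FV substrate; RT 20 min; Ex320/Em430; ΔFRET vs ADEP 5.8 microM, DMSO, no enzyme.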
Menin MLL FP FL: inhibitors of human menin-MLL interaction, wild-type MLL peptide; Fluorescence polarization, fluorescein-MLL peptide displacement from menin; FP activity change, % at 61.4 µM; 290,000 tested, under 10 active; inconclusive = falling polarisation curve, or a change in total fluorescence; inactive = total fluorescence flat and polarisation flat or rising; no compound was filed as active; the % refers to the polarisation; negative = inhibition;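 also: % of control where 0% means no effect; inhibitors lower the polarisation; unlabelled MLL peptide was the positive control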
An asterisk follows results filed as active; ? = inconclusive; . = not tested or not shown; [ ] = dose if it differs, or a comment.

compound | Sfp PPTase inh | D2 ag | gsp agonist | PINK1 expr mod | gsp antagonist | ClpP mod | Menin MLL FP FL
CC(C)CN(C(=O)COC(=O)c1cccc2ccccc12)c1c(N)n(Cc2ccccc2)c(=O)[nH]c1=O | . | -7.2 | ? | 22% | 1% | ? | .
COc1ccccc1CN=Cc1[nH]c2ccc(Br)c(Cl)c2c1O | ? | -7.5 | 19% | 1.5% | 7% | 1.4% | ?
CCc1ccccc1N(CC(=O)NCc1ccc(OC)cc1)C(=O)CCC(=O)Nc1ccccn1 | 10% | 1.6 | -10%[15.4 µM] | -1.2% | -15% | . | 4.1
O=C(Nc1ccccc1)OCCN1CCN(Cc2ccccc2)CCC1=O | 10% | -6.2 | -25% | 0.8% | 13% | -1.5% | 2.5
O=C(C[C@@H]1C/C=C\C[C@@H](Cc2ccc(F)cc2)C(=O)OC[C@H]2CCCN2C1=O)NCCO | . | -1.5 | 14% | 0.5% | 1% | 0.9% | .
Cc1cc(NC(=O)c2cc(C3CC3)on2)no1 | 3% | 4.8 | -23% | -0.3% | 4% | -1.0% | -2.7
COC1=CCC2([N+](=O)[O-])CN(CCO)CC1([N+](=O)[O-])C2 (stereo not drawn) | 9% | -0.6 | -10% | -1.8% | -16% | -4.9% | -0.7
Cc1cccc(OCc2nnc(SCC(=O)N(C)C3CCCCC3)o2)c1 | . | -1.5 | 8%[15.4 µM] | 0.7% | -12% | . | .
O=C(O)/C=C/C(=O)N1CCN(c2ccccc2F)CC1 | 6% | 0.1 | 26% | 1.6% | 1% | -0.2% | 0.9
CC(=O)O[C@]1(C(C)=O)CC[C@H]2[C@@H]3C=C(C)C4=CC(=O)CC[C@@H]4[C@H]3CC[C@@]21C | . | -5.6 | . | 1.2% | -21% | -0.8% | .
OCCC1CN(Cc2ccc3cccc(F)c3n2)CCN1Cc1ccccc1 (stereo not drawn) | 20% | -4.4 | 4% | 3.1% | -3% | -2.8% | -1.4
CSCC[C@H](NC(=O)N1CCn2c1nc1ccccc12)C(=O)NCc1ccccc1 | 26% | 3.2 | ? | -0.1% | -8% | -2.2% | 2.4
O=C(CN(Cc1ccccc1)C(=O)c1cc2c(s1)CCC2)NCc1cccs1 | 16% | -0.7 | -24% | -2.9% | -24% | -1.5% | 2.7
COc1ccc(OCCOCCN2CCN(C)CC2)cc1 | ? | -2.1 | -8% | 0.8% | 4% | 0.6% | 0.4
O=C(N/N=C/c1ccc2c(c1)OCO2)c1ccc(COc2cccc3cccnc23)cc1 | 15% | 1.9 | -62%[inhibitor] | 6.8% | ? | -24% | 3.5
COc1ccc(NC(=O)CSc2nc(N)c(NC(=O)c3cccs3)c(=O)[nH]2)cc1 | ? | -2.4 | 6% | -0.8% | 7% | 0.5% | -1.6
O=C(NCCc1ccccc1)c1ccc2c(c1)OCO2 | 8% | -5.3 | ? | 0.1% | -2% | . | 4.0
COc1ccc(C2(C)NC(=O)N(CC(=O)Nc3c(C)n(C)n(-c4ccccc4)c3=O)C2=O)cc1 (stereo not drawn) | . | -1.1 | 30%[15.4 µM] | -2.1% | 11% | . | .
O=S(=O)(NCCN1CCOCC1)c1ccc(Oc2ccccc2Cl)cc1 | 29% | 1.3 | -6% | 2.4% | 7% | . | 2.5
Nc1c(C(=O)Nc2ccc(Br)cc2)sc2nc(-c3ccco3)ccc12 | 10µM* | 3.9 | ? | 2.5% | 18% | -23% | ?
O=C(NN=C1CCN(Cc2ccccc2)CC1)c1cc2ccccc2cc1O | -13% | 7.2 | 24% | 0.3% | 4% | -1.4% | 12
COc1cccc(NC(=O)C2(C)CCN2Cc2ccc(SC)cc2)c1 (stereo not drawn) | . | -2.5 | . | 0.8% | . | 1.3% | .
Cc1cc(C)cc(NC(=S)N2CCN(S(C)(=O)=O)CC2)c1 | -2% | -3.9 | -5%[15.4 µM] | 0.6% | -1% | -2.7% | -1.5
O=C(Cn1c(=O)oc2ccccc21)NCCc1ccccc1Cl | 8% | -4.0 | -45%[inhibitor] | 0.3% | -10% | 0.6% | -0.7
COc1ccc(CNS(=O)(=O)CCNC(=O)c2ccc(OC)cc2)cc1 | . | -3.0 | 17%[15.4 µM] | 0.1% | 9% | . | .
N=c1ccn(Cc2ccc([N+](=O)[O-])cc2)cc1 | 12% | -4.9 | 15%[15.4 µM] | -2.4% | 13% | -2.4% | 35[activator]
CC12CCC(C(=NO)C1=NO)C2(C)C (stereo not drawn) | . | 0.9 | 28% | -0.2% | 12% | . | .
COc1ccc(Cl)cc1NC(=O)CN1CCN(S(=O)(=O)N2CCOCC2)CC1 | 12% | -2.0 | 16%[15.4 µM] | 0.1% | ? | -19% | 4.4
O=C1c2cccc3cccc(c23)C(=O)N1CCN1CCN(C(=S)Nc2ccc(Cl)cc2)CC1 | 6% | -2.5 | 14% | 4.6% | 8% | -1.0% | -2.2
CC(C)(O)C#Cc1ccc(CN2CCN(C3CCCCC3)C(CCO)C2)s1 (stereo not drawn) | 16% | -1.3 | -58%[inhibitor] | -1.8% | 8% | . | 0.1

Further structures follow.
compound | Sfp PPTase inh | D2 ag | gsp agonist | PINK1 expr mod | gsp antagonist | ClpP mod | Menin MLL FP FL
Cc1nc2c(C)cccc2cc1C(=O)N/N=C/c1ccc(O)cc1 | -11% | -2.6 | -62%[inhibitor] | 2.5% | 4% | -6.1% | 3.8
O=C(CCc1nc(-c2ccccc2)no1)NCCc1ccccc1 | 3% | 0.3 | ? | 12%[38.3 µM] | -28% | 1.0% | 4.2
CCN(CC)CCn1nc(C)nc1-c1ccccc1O | -8% | -4.6 | -8% | 1.1%[38.3 µM] | 9% | -4.9% | 2.7
O=C(N/N=C/c1ccc(O)c(O)c1)C1CC1 | . | -3.7 | 5% | 1.9% | -6% | -27% | .
CCCCC(=O)N(C)c1c(C)nc2ccc(C(=O)N3CCCCC3)cn12 | . | -3.6 | . | 0.1% | . | -11% | .
O=c1cnnc(Nc2ccc(Nc3ccccc3)cc2)[nH]1 | 15% | 0.4 | -11%[15.4 µM] | 1.1% | -9% | . | -7.9
CCOC(=O)c1cccc(NC(=O)C(C)N2C(=O)c3ccccc3C2=O)c1 (stereo not drawn) | ? | 2.1 | -49%[inhibitor] | 0.9% | 2% | -1.0% | -1.3
Cn1c(=O)c(=O)n(C)c2cc(S(=O)(=O)N3CCOc4ccccc43)ccc21 | 12% | -1.0 | -2%[15.4 µM] | 1.4% | -7% | . | .
Cn1c(SCc2ccon2)nc2ccccc2c1=O | 1% | 1.3 | -29% | -4.8%[38.3 µM] | 2% | 0.7% | 0.6
Cc1ccccc1NC(=O)C(Cl)=C(Cl)Cl | 2% | -3.9 | -2% | -2.6% | -18% | . | -0.8
COc1cc2c(cc1OC)C(C)N(C(=O)c1cc(C)on1)CC2 (stereo not drawn) | 17% | 3.6 | 4%[15.4 µM] | ? | 17% | -1.6% | .
C=CCNC(=S)Nc1ccc(OC(F)F)c(Cl)c1 | 24% | 11 | -10%[15.4 µM] | 5.9% | -23% | . | -1.6
C[C@@H]1CCCCO[C@H](CN(C)Cc2ccccc2)[C@@H](C)CN([C@H](C)CO)C(=O)c2cc(NC(=O)c3ccccc3)ccc2O1 | . | 0.7 | 7% | -0.3% | . | -3.9% | .
Cc1ccc(NCc2ccccc2O)cc1C | 4% | 2.8 | 6% | 7.7% | -2% | . | 3.5
CCCCN(C(=S)Nc1cccc(SC)c1)C1CCN(C(C)=O)CC1 | -20% | 1.0 | -39%[inhibitor][15.4 µM] | -0.6% | -2% | . | 5.9
Cc1cc(F)ccc1C(O)c1ncc(-c2ccc(Oc3ccccc3)cc2)[nH]1 (stereo not drawn) | . | -3.7 | . | -0.1% | . | -1.1% | .
CCOC(=O)N1CCN(C(=O)/C=C/c2cccc([N+](=O)[O-])c2)CC1 | 20% | 6.1 | 3%[15.4 µM] | 1.1% | 2% | . | -1.2
CCOc1ccc(-c2nc(CSc3nnc(N)s3)cs2)cc1 | 10% | -2.7 | -21% | 5.0% | -1% | -17% | 1.0
CCN1CC2=C(OC(N)=C(C#N)C2c2ccccc2)/C(=C\c2ccccc2)C1 (stereo not drawn) | -14% | -4.3 | 1% | 6.1% | -11% | -3.8% | ?
Cn1c(SCC(=O)N/N=C/C=C/c2ccco2)nc2ccccc21 | -9% | -3.0 | -17% | -1.4% | -8% | -1.0% | 1.5
N#C/C(=C\c1coc2ccc(O)cc2c1=O)C(=O)Nc1nc2ccccc2s1 | -29% | 8.4 | ? | ? | -14% | 4.2% | ?
Cc1ccccc1OCC(=O)NNC(=S)NC(=O)c1ccccc1[N+](=O)[O-] | 22% | -2.6 | ? | -1.0% | -5% | -0.7% | 5.2
COc1ccc(CCNC(=O)C(=O)NCC2CCCO2)cc1 (stereo not drawn) | 13% | -2.2 | -11% | -0.4% | 11% | -6.9% | 2.5
O=C1CC(NS(=O)(=O)c2cccnc2)CN1c1ccccc1 (stereo not drawn) | . | -2.7 | 6%[15.4 µM] | 0.3% | 9% | . | .
COCCC(=O)N1CCC(Oc2ccc(C(=O)N3C[C@@H]4CCC[C@H]3C4)cc2)CC1 | -2% | -0.9 | -5% | -2.1% | 10% | -1.8% | 1.0
Cn1cccc1CNCC(O)c1ccccc1 (stereo not drawn) | 9% | 0.4 | -14%[15.4 µM] | 2.4% | 2% | -0.9% | -1.2
CS(=O)(=O)c1ccc(Cl)c(NC(=O)Cc2ccsc2)c1 | 9% | 0.0 | 16% | 2.1% | -1% | -1.4% | .
O=S(=O)(/N=C(\Sc1ccccc1)c1ccccc1)c1ccc(Cl)cc1 | 35µM* | -1.5 | -6% | 12%[38.3 µM] | -4% | 5.0% | -7.0
CCOC(=S)SCC(=O)Nc1nc(-c2ccccc2)cs1 | 1% | -8.1 | -15% | 1.1% | -3% | 2.4% | 2.6
COc1ccc(-c2cc(CNS(=O)(=O)c3cc(OC)ccc3OC)on2)cc1 | 5% | 4.7 | 6% | -0.6% | -14% | -0.2% | -5.0

Screening data deposited in PubChem BioAssay by National Center for Advancing Translational Sciences (NCATS).
